From PubChem BioAssay
CDC25B CDK2 inh = human CDC25B-CDK2/CyclinA binding inhibition; HTRF CDC25B-CDK2/CyclinA binding, anti-His/anti-Flag; active compounds read high; z-score (concentration not given with the values); 0.72% of 94,000 active;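 note: score is relative to mean and SD of negative controls; strong numbers were not always called active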
HIV TAR-Tat = HIV-1 TAR-Tat binding disruption; HIV-1 TAR RNA, Tat peptide displacement FRET; active compounds read high; z-score (no concentration beside the values); 0.6% of 100,000 active; AID 1259389;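 note: score is relative to mean and SD of negative controls; some compounds called inactive have numbers as strong as hits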
Active calls of the source: *.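 Rule for the calls: active = z-score from 3 up in half or more of its runs; inactive = the rest.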

Cn1cnc2c(=O)oc3ccc(S(=O)(=O)N4CCCCC4c4cccnc4)cc3c21 (centres undefined) was read as HIV TAR-Tat 0.05.
For COc1ccc(C2c3c(-c4ccccc4O)n[nH]c3C(=O)N2Cc2ccco2)cc1OC (centres undefined) the results were CDC25B CDK2 inh -2.1 and HIV TAR-Tat 4.2.
`CCOC(=O)c1cn[nH]c1S(=O)(=O)Nc1ccccc1` gave HIV TAR-Tat 0.62.
`CCc1nc(-c2csc(S(=O)(=O)Nc3ccc4c(c3)OCCO4)c2)no1` gave HIV TAR-Tat 2.3.
For O=C1Nc2ccccc2C(O)(C(=O)N2CCC3(CC2)OCCO3)N1c1ccccc1 (centres undefined) the results were CDC25B CDK2 inh -1.4.
Screening Cc1onc(-c2c(Cl)cccc2Cl)c1C(=O)NC(C#N)c1ccc2c(c1)OCO2 (centres undefined) returned CDC25B CDK2 inh -1.9.
`Nc1cc(-c2ccc(Cl)cc2)nn1-c1ccc(F)cc1` gave CDC25B CDK2 inh 0.65.
COC(=O)Cn1nc(C)n2c(cc3occc32)c1=O was read as CDC25B CDK2 inh -3.4 and HIV TAR-Tat 0.7.
Screening Cc1cc(NC(=O)C(C)n2sc3ccccc3c2=O)ccc1Br (centres undefined) returned CDC25B CDK2 inh -2.1 and HIV TAR-Tat 0.86.
Screening Cc1ccc(C2C3=C(Nc4ncnn42)c2ccccc2OC3c2ccccc2F)cc1 (centres undefined) returned CDC25B CDK2 inh -1.2.
O=C1CC2(CCN(C(=O)Nc3cc(F)ccc3F)CC2)Oc2ccccc21 was read as HIV TAR-Tat -0.27.
For CC(C)OC(=O)CNc1n[nH]c(=O)[nH]c1=O the results were CDC25B CDK2 inh -0.26 and HIV TAR-Tat -0.63.
Screening CN(n1cnc2ccccc2c1=O)S(=O)(=O)c1cc(Cl)sc1Cl returned CDC25B CDK2 inh -1.7.
`Cn1ncc2c(Nc3ccc4c(c3)OCO4)ncnc21` gave HIV TAR-Tat -0.87.
For CCOC(=O)c1nnn(-c2nonc2N)c1CSc1ccc(C)cc1 the results were CDC25B CDK2 inh -0.93 and HIV TAR-Tat 0.61.
COc1ccc2scc(N3CCOCC3)c(=O)c2c1 was read as HIV TAR-Tat 1.5.
Screening CC1CCN(C(=O)Cn2c(=O)c3cccn3c3ccc(F)cc32)CC1 returned HIV TAR-Tat 1.
`O=C(Nc1nc2c(s1)CCc1ccccc1-2)c1cccs1` gave CDC25B CDK2 inh -1.1 and HIV TAR-Tat 2.8.
For CC(C)c1ccc(-c2c(N3CCN(c4ccccc4)CC3)c(=O)c2=O)cc1 the results were HIV TAR-Tat 2.
O=C(C1CCCN(c2nnc(-n3cccc3)s2)C1)N1CCN(c2ccc(Cl)cc2)CC1 (centres undefined) was read as HIV TAR-Tat 0.96.

Reprinted at random: 7 compounds from above, in no set order.
For CC(C)c1ccc(-c2c(N3CCN(c4ccccc4)CC3)c(=O)c2=O)cc1 the results were HIV TAR-Tat 2.
COc1ccc2scc(N3CCOCC3)c(=O)c2c1 was read as HIV TAR-Tat 1.5.
O=C(C1CCCN(c2nnc(-n3cccc3)s2)C1)N1CCN(c2ccc(Cl)cc2)CC1 (centres undefined) was read as HIV TAR-Tat 0.96.
For CC(C)OC(=O)CNc1n[nH]c(=O)[nH]c1=O the results were CDC25B CDK2 inh -0.26 and HIV TAR-Tat -0.63.
`O=C(Nc1nc2c(s1)CCc1ccccc1-2)c1cccs1` gave CDC25B CDK2 inh -1.1 and HIV TAR-Tat 2.8.
`CCOC(=O)c1cn[nH]c1S(=O)(=O)Nc1ccccc1` gave HIV TAR-Tat 0.62.
`Cn1ncc2c(Nc3ccc4c(c3)OCO4)ncnc21` gave HIV TAR-Tat -0.87.

Carrying on.
`Cn1cnc(S(=O)(=O)Nc2cccc(F)c2)c1` gave HIV TAR-Tat 0.86.
Screening CCOC(=O)C1C(=O)CC(O)(c2ccccc2)CC1c1ccccc1 (centres undefined) returned CDC25B CDK2 inh -1.9 and HIV TAR-Tat 0.53.
`Cc1nc(C(F)(F)F)ccc1C(=O)NCCc1cccs1` gave CDC25B CDK2 inh -2.5.
NC(=O)C(=O)Nc1ccc2c(c1)OCCO2 was read as CDC25B CDK2 inh -1.6 and HIV TAR-Tat -0.65.
Screening CC(C(=O)N1c2ccccc2CCc2ccccc21)N1C(=O)c2ccccc2C1=O (centres undefined) returned CDC25B CDK2 inh 0.38.
Screening Cc1cc(C)cc(N2C(=O)C3C(c4ccccc4)OC4(C(=O)c5ccccc5C4=O)C3C2=O)c1 (centres undefined) returned CDC25B CDK2 inh -2.4.
`CCOC(=O)c1nc(Nc2cc(C)c(Cl)cc2OC)c2c(C)noc2n1` gave HIV TAR-Tat -0.73.
Screening COc1ccccc1C1Oc2ccc(Cl)cc2C2=C1C(c1cccs1)n1ncnc1N2 (centres undefined) returned CDC25B CDK2 inh -1.4.
For NC(=S)NCc1ccc(F)cc1 the results were CDC25B CDK2 inh 0.05.
Screening CC(C)C1C(=O)Nc2ccc(S(=O)(=O)NCc3cccs3)cc21 (centres undefined) returned HIV TAR-Tat 0.79.
C/C(=N\OC(=O)c1cc2ccccc2s1)c1cc[nH]c1 was read as CDC25B CDK2 inh -1.3.
`CC1CS(=O)(=O)N(c2ccc(C(=O)N3CCN(Cc4ccc5c(c4)OCO5)CC3)cc2)C1=O` (centres undefined) gave CDC25B CDK2 inh 0.18 and HIV TAR-Tat 2.5.
Screening Cc1c(C2=CCN(S(=O)(=O)c3ccc(Br)cc3)CC2)c2ccccc2n1C returned CDC25B CDK2 inh -2 and HIV TAR-Tat 1.5.
Screening Cc1nn(CC(=O)NCc2ccc(Cl)cc2)c(=O)c2cc3sccc3n12 returned CDC25B CDK2 inh -1.7.
`Cc1ccc(Nc2nc(Oc3ccc(=O)[nH]n3)nc(N(C)C)n2)cc1` gave CDC25B CDK2 inh -0.41 and HIV TAR-Tat 2.4.
For CCSCCOC(=O)C1=C(C)NC2=C(C(=O)CC(c3ccccc3)C2)C1c1cccc(F)c1 (centres undefined) the results were CDC25B CDK2 inh -4.3 and HIV TAR-Tat 1.1.
For Cc1nn(CC(=O)NOC(=O)c2ccccc2F)c(C)c1[N+](=O)[O-] the results were CDC25B CDK2 inh -0.78.
CCN(CC)C(CNS(=O)(=O)c1ccc(C)cc1)c1ccccc1 (centres undefined) was read as CDC25B CDK2 inh -1 and HIV TAR-Tat 0.91.
`CCc1nc2n(n1)C1(CCCCC1)[C@@H]1CCCC[C@@H]1N2C(=O)C1CC1` gave CDC25B CDK2 inh 1 and HIV TAR-Tat 1.1.
`Cc1ccc2snc(C(=O)N3CCN(S(=O)(=O)c4c(C)nn(C)c4C)CC3)c2c1` gave HIV TAR-Tat -0.6.

Brought forward from above: two compounds, followed by the next part.
`CCc1nc2n(n1)C1(CCCCC1)[C@@H]1CCCC[C@@H]1N2C(=O)C1CC1` gave CDC25B CDK2 inh 1 and HIV TAR-Tat 1.1.
`Cc1ccc2snc(C(=O)N3CCN(S(=O)(=O)c4c(C)nn(C)c4C)CC3)c2c1` gave HIV TAR-Tat -0.6.
Screening O=C(CSCCc1ccccn1)Nc1ccccn1 returned HIV TAR-Tat 1.5.
For COc1cc(-c2onc3ccc(Cl)cc23)ccc1O the results were CDC25B CDK2 inh -1.4.
Screening Cc1ccc(C)c(NS(=O)(=O)c2ccc3c4c2CC(=O)N4CC(C)S3)c1 (centres undefined) returned HIV TAR-Tat 0.36.
`CCOC(=O)N1CCN(C(=O)Cc2cn(C)c3ccccc23)CC1` gave CDC25B CDK2 inh -1.1 and HIV TAR-Tat 0.67.
`Cc1oc2ncnc(N3CCCCC3)c2c1C(=O)N1CCCc2ccccc21` gave HIV TAR-Tat 0.66.
CCN(CC)c1ncnc2c1cnn2-c1cccc(Cl)c1 was read as HIV TAR-Tat 1.2.
Cc1nc2sc(C(=O)Nc3cnc4ccccc4c3)c(N)c2c(C)c1C was read as CDC25B CDK2 inh -1.1.
Screening CCOC(=O)c1cc2c(c(CSc3nnc4ccc5ccccc5n34)c1)OCOC2 returned CDC25B CDK2 inh -0.4 and HIV TAR-Tat -0.12.
For CC(C)(C)NC(=O)CSc1nnc2c3ccccc3nc(-c3ccccc3)n12 the results were HIV TAR-Tat 0.96.
O=C1OC2C=CC(Br)=CC2=CC1C(=O)N1CCSC1c1ccccc1Cl (centres undefined) was read as CDC25B CDK2 inh -1.8.
For CCOC(=O)Cc1c(C)[nH]c(=S)[nH]c1=O the results were CDC25B CDK2 inh 0.98.
For CSCCC(NS(=O)(=O)c1ccc2c(c1)oc(=O)n2C)C(=O)NC1CCCC1 (centres undefined) the results were CDC25B CDK2 inh -1.4 and HIV TAR-Tat -0.75.
For Cc1cc(N2CCN(C)CC2)n2nc(C(F)(F)F)c(-c3ccc(F)cc3)c2n1 the results were CDC25B CDK2 inh -2.7 and HIV TAR-Tat -0.03.
`COc1ccc(S(=O)(=O)Nc2nc3ccccc3s2)cc1` gave CDC25B CDK2 inh -1.4 and HIV TAR-Tat 1.4.
Screening Clc1cc2c(c3ncccc13)OCN(Cc1cccnc1)C2 returned CDC25B CDK2 inh -2.1.
For O=C1CCC([N+](=O)[O-])C(C2CC=CCC2)N1 (centres undefined) the results were CDC25B CDK2 inh -1.4.
For CCOC(=O)c1noc(N)c1C#N the results were CDC25B CDK2 inh -1.5.
Cc1oc(-c2ccc(Cl)cc2)nc1Cn1c(=O)cc(C)c2c(C)nn(C)c21 was read as HIV TAR-Tat 0.98.
Screening NC(=O)C1CCN(C(=O)CSc2c3c(nc4ccc(Cl)cc24)CCCC3)CC1 returned CDC25B CDK2 inh -9.6.
`COc1cccc(-c2nc(-c3ccsc3)c(-c3ccccc3)[nH]2)c1` gave CDC25B CDK2 inh -0.19.
`CCCNC(=O)C(C)n1nc(C)c2sc3ccccc3c2c1=O` (centres undefined) gave CDC25B CDK2 inh -2.2 and HIV TAR-Tat 3.
Cc1c(C(=O)O)sc2ncnc(NC3CC3)c12 was read as HIV TAR-Tat 0.22.
O=C1NCc2ccc(S(=O)(=O)NCc3ccc(F)cc3)cc21 was read as HIV TAR-Tat 1.
CSc1cc(C)nc(NC(C)=O)n1 was read as CDC25B CDK2 inh -0.47 and HIV TAR-Tat -0.49.
`COCC(C)NC(=O)c1c(O)nc2ccccn2c1=O` (centres undefined) gave CDC25B CDK2 inh -0.96 and HIV TAR-Tat 1.1.
For CCOc1ccc(-c2noc(-c3cccnc3)n2)cc1OCC the results were CDC25B CDK2 inh -1.4 and HIV TAR-Tat 2.8.
`Nc1c(-c2nc(-c3ccncc3)no2)nnn1-c1ccc(F)c(Cl)c1` gave HIV TAR-Tat 0.88.
For COc1ccc(-c2[nH]nc3c2C(c2ccccc2OC(=O)N2CCOCC2)C(C#N)=C(N)O3)cc1 (centres undefined) the results were HIV TAR-Tat 3.1.
Cc1cc(C)cc(NC(=O)CSc2nnc(Cc3cccn3C)n2-c2ccc(F)cc2)c1 was read as CDC25B CDK2 inh -2.8.
For c1cc(-c2nc3cc(Cc4ccc5oc(-c6ccncc6)nc5c4)ccc3o2)ccn1 the results were CDC25B CDK2 inh -1.2 and HIV TAR-Tat -1.
`Cc1ccc(N2CC(c3nnc(-c4ccc5c(c4)OCO5)o3)CC2=O)cc1` (centres undefined) gave CDC25B CDK2 inh -0.44 and HIV TAR-Tat 0.9.
`S=C1NCN(Cc2ccccc2)CN1` gave CDC25B CDK2 inh -2.
For CC1=CC(C)(C)N(C(=O)Nc2ccccc2)c2ccccc21 the results were CDC25B CDK2 inh -0.41 and HIV TAR-Tat 0.56.
